AmpC inh no det – AmpC beta-lactamase inhibition, detergent-free assay; Potency, µM (top dose mostly 28.7 µM), inactives show at the top dose activity change, negative = inhibition; AmpC nitrocefin hydrolysis, absorbance 480 nm, no detergent; potencies from a single point are estimates; 1.8% of 71,000 active; P00811; AID 585; active = falling curve, for most hits resting on a single point; inconclusive = weak or doubtful change; inactive = flat or rising curve; note: % of control where 0% means no effect; about half of the hits show no inhibition at the top dose; a quarter of the inactives give rising signals
Target sequence (P00811 whole entry, looked up): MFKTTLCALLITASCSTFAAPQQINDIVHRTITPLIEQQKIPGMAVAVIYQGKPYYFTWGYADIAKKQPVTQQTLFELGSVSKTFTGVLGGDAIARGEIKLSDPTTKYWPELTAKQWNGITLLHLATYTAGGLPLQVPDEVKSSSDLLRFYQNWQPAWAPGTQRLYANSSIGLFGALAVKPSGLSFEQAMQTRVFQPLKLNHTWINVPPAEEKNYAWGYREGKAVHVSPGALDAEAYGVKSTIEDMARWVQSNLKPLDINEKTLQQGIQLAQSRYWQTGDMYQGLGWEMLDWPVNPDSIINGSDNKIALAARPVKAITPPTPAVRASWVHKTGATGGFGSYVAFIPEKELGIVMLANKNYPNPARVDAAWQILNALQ
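AmpC in 20 mM phosphate buffer pH 7.0 was preincubated 15 min at room temperature with compounds. Nitrocefin (800 uM stock) was then added and hydrolysis followed at 480 nm every 20 s for 4 min.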
The depositor's hits bear a star; u = inconclusive; [ ] = another dose, or the depositor's remark. Potency is the fitted concentration of half-maximal effect. This is a subset, so the mix of outcomes need not match the whole.

SMILES	AmpC inh no det
Oc1c(C(c2cccs2)N2CCN(c3ccccc3)CC2)sc2ncnn12 (centres undefined)	14%
CC(C)(C)c1ccc(OCCN2CCCC2)cc1	8%
CCCS(=O)(=O)N1CCC(C(=O)NCCN(CC)c2ccccc2)CC1	37%
CN(C)CCCNc1oc(-c2cccc(Cl)c2)nc1C#N	8%
CCCN(CCC)CCCNC(=O)c1cc2cc3ccc(OC)cc3nc2o1	27%
Cn1c(=O)c(-c2ccc(Cl)cc2)nc2cnc(Nc3ccccc3)nc21	3%
c1ccc2[nH]c(NCCN3CCOCC3)nc2c1	-19%
Cc1ccccc1Oc1ccc(Oc2ccccc2C)nn1	-6%
COC(=O)C1=C(C)NC(=O)CC1c1cc2c(cc1Br)OCO2 (centres undefined)	-1%
COc1ccc(C(=O)Nc2cccnc2)cc1S(=O)(=O)N1CCOCC1	-2%
CS(=O)(=O)N(CC(=O)O)c1ccc2c(c1)OCO2	104%
COC(=O)N1CC=CC1(C)C(=O)O (centres undefined)	-8%
CCCCCCCCCCCCCCCCCCc1ccc(C(=O)/C=C\C(=O)O)cc1	-2%
Cc1noc(NS(=O)(=O)c2ccc(N3Cc4ccccc4C3=O)cc2)c1C	-6%
O=C1c2oc3ccc(F)cc3c(=O)c2C(c2cccc(O)c2)N1CCCN1CCOCC1 (centres undefined)	19%
COC(=O)c1[nH]c2c(c1C)C(=O)CCC2	-9%
O=C1O[C@@H]([C@H](O)[C@H](O)[C@H](O)CO)[C@@H](O)[C@@H]1O	5%[5.75 µM]
COc1cccc(C(=O)Nc2ccc3nc(N4CCN(c5ncccn5)CC4)cc(C)c3c2)c1OC	113%
CC(CCc1ccccc1)NC(=O)C1CCN(S(=O)(=O)c2cnc[nH]2)CC1 (centres undefined)	5%
COC(=O)Cc1csc(N)n1	-2%
O=C(NCC1(N2CCOCC2)CCCCC1)c1ccc(Cl)c(S(=O)(=O)NCc2ccco2)c1	24%
Cc1ccc(C)c(-n2c(CNC(=O)c3ccco3)nnc2SCC(=O)Nc2nccs2)c1	15%
COc1cccc(OCCOc2c(OC)cccc2OC)c1	1%
O=C(c1cc(-c2ccccc2)on1)N1CCN(Cc2ccc3c(c2)OCO3)CC1	98%
Nc1nc(CN2CCN(c3cccc(Cl)c3)CC2)nc(N2CCCc3ccccc32)n1	115%

Three entries already listed, arranged by length of the SMILES, smallest number first.
SMILES	AmpC inh no det
COC(=O)Cc1csc(N)n1	-2%
CS(=O)(=O)N(CC(=O)O)c1ccc2c(c1)OCO2	104%
Cn1c(=O)c(-c2ccc(Cl)cc2)nc2cnc(Nc3ccccc3)nc21	3%

Back to the main list; the five compounds before the break are reprinted first.
SMILES	AmpC inh no det
O=C(NCC1(N2CCOCC2)CCCCC1)c1ccc(Cl)c(S(=O)(=O)NCc2ccco2)c1	24%
Cc1ccc(C)c(-n2c(CNC(=O)c3ccco3)nnc2SCC(=O)Nc2nccs2)c1	15%
COc1cccc(OCCOc2c(OC)cccc2OC)c1	1%
O=C(c1cc(-c2ccccc2)on1)N1CCN(Cc2ccc3c(c2)OCO3)CC1	98%
Nc1nc(CN2CCN(c3cccc(Cl)c3)CC2)nc(N2CCCc3ccccc32)n1	115%
c1cncc(-c2nc(-c3ccc4c(c3)OCO4)cs2)c1	15%
COC(=O)[C@H]1C2CCC(C(=O)OC)(CC2)[C@H]1C(=O)OC	-1%
COc1ccc(C)cc1NC(=O)CN1C(=O)c2ccccc2S1(=O)=O	16%
O=C(Nc1ccccc1)NC1CS(=O)(=O)CC1O (centres undefined)	-15%
CC1(C)CNC(=O)c2sc(NC(=O)CN3CCOCC3)nc2C1	6%
O=C(Nc1ccc(Cl)cc1)N(Cc1cccnc1)Cc1ccco1	-3%
Brc1ccc(-c2csc(/N=C/N3CCOCC3)n2)cc1	93%
CN(C)CCCc1c[nH]c2ccccc12	4%[5.75 µM]
Cc1cc(-n2c(C)cc(C(=O)CN3C(=O)NC4(CCCCC4)C3=O)c2C)no1	48%
CC[N+](C)(CC)CCC[n+]1c(-c2ccccc2)c2cc(N)ccc2c2ccc(N)cc21	19%[12.8 µM]
OC[C@@H]1O[C@@H](n2cnc3c(N[C@H]4CCC[C@@H]4O)ncnc32)[C@H](O)[C@H]1O	0%
COc1ccccc1Cc1noc(C(C)(C)NC(=O)c2ccccc2)n1	11%
Cc1cc(NS(=O)(=O)c2ccc(NC(=O)CCCOc3ccc(Cl)cc3)cc2)no1	-22%
COc1ccc(C2C(C(C)=O)=C(O)C(=O)N2CCc2ccccc2)c(OC)c1 (centres undefined)	-13%
COCCn1c(=O)c(C)nc2cnc(Nc3ccccc3)nc21	4%
O=C1OC(c2ccc(O)cc2)(c2ccc(O)cc2)c2ccccc21	-7%
O=C(Cn1ncc2ccccc21)N1CCN(c2cccc(C(F)(F)F)c2)CC1	15%
O=C(Cn1nc(Cc2ccncc2)c2ccccc2c1=O)N1CCc2ccccc2C1	4µM*[single pt active]
CC(=NCC1CCNCC1)C1=C(O)CC(C)(C)CC1=O	3%
CC(C(=O)N1CCOCC1)N1c2cccc3cccc(c23)S1(=O)=O (centres undefined)	25%
O=C(c1ccc(F)cc1)N1CCN(C2CC3CCC2C3)CC1 (centres undefined)	7%
O=C(NCc1ccco1)C(c1ccco1)N(C(=O)Cn1nnc2ccccc21)c1ccc2c(c1)CCC2 (centres undefined)	13%
CCc1ccc(S(=O)(=O)NCc2cn3c(C)csc3n2)s1	0%
CCCCP(=O)(O)CCC(=O)O	2%
COCCN(C(=O)CN1CCc2ccccc2C1)c1c(N)n(Cc2ccccc2)c(=O)[nH]c1=O	0%

A few values from above:
Entry of COCCN(C(=O)CN1CCc2ccccc2C1)c1c(N)n(Cc2ccccc2)c(=O)[nH]c1=O under AmpC inh no det: 0%
Entry of c1cncc(-c2nc(-c3ccc4c(c3)OCO4)cs2)c1 under AmpC inh no det: 15%

(further entries)
SMILES	AmpC inh no det
CC(NC(=O)C1CCC1)c1ccccc1 (centres undefined)	-5%
CCSc1nnc(NC(=O)CSc2ncccn2)s1	6%
CC1CCCC(NC(=O)CSc2nnnn2C)C1C (centres undefined)	2%
COC(=O)C(O)(CC(=O)Nc1ccc(OC(F)(F)F)cc1)C(F)(F)F (centres undefined)	-10%
COc1cccc(C2=NO[C@@H]3C(=O)N(Cc4ccccc4)C(=O)[C@H]23)c1OC	2%
c1ccc(-c2ccc(OCCCn3cncn3)cc2)cc1	57%
Cc1cc(N2CCN(c3ccccc3)CC2)nc(NCc2ccccc2)n1	10%
Cc1ccc(CN2CCN(CC(=O)N3CCC4(CC3)OCCO4)C2=O)cc1	11%
C[C@H](C(=O)c1ccncc1)c1ccccn1	-9%[5.75 µM]
CCn1c2c(c3cc(Cl)ccc31)CCCC2=O	18%
O=C(c1oc2ccccc2c1CSCc1ccccc1)N1CCN(c2ncccn2)CC1	34%
O=c1cccc2n1CC1CC2CN(Cc2c(F)cccc2Cl)C1 (centres undefined)	28%
Cc1ccc(-c2noc(CCC(=O)NCCCN3CCN(c4ccc(F)cc4)CC3)n2)cc1	142%
COc1ccc(C(=O)N2CCC3(CCCN(c4ccc(-c5ccccc5)cc4)C3)CC2)cc1	67%
OC(C#CCN1CCCCC1)c1ccccc1 (centres undefined)	4%
O=C(CCSc1nc(-c2ccco2)cc(C(F)(F)F)n1)Nc1ccc2c(c1)OCO2	-1%
Cc1cc(C(=O)CSc2nnnn2-c2ccc(Cl)cc2)c(C)n1CC1CCCO1 (centres undefined)	-14%
O=C(Nc1cccc(Cl)c1)c1c(O)c2c(n(Cc3ccco3)c1=O)CCCC2	-12%
O=C1OC(c2ccc(O)c(-c3ccccc3)c2)(c2ccc(O)c(-c3ccccc3)c2)c2c(Cl)c(Cl)c(Cl)c(Cl)c21	4%[5.75 µM]
COc1cccc(-c2nccc(NCc3ccccc3OC)n2)c1	43%
CCCC(=O)NCCCCNC(=O)CCC	5%
CCn1c2ccccc2c2cc(C3N=C(N)Nc4nc5ccccc5n43)ccc21 (centres undefined)	-11%
COc1cccc(C(c2nnnn2Cc2ccc(F)cc2)N2CCC(C(N)=O)CC2)c1OC (centres undefined)	-4%
O=C(c1ccco1)N1CCC2(CC1)CN(Cc1cc(C(F)(F)F)cc(C(F)(F)F)c1)C2	117%
Cc1cccc2cc(C(c3nnnn3Cc3ccccc3)N3CCN(c4ccccc4)CC3)c(=O)[nH]c12 (centres undefined)	37%

Next structures
SMILES	AmpC inh no det
COc1ccccc1CNc1ncnc2ccc(-c3c(C)noc3C)cc12	52%
CCc1ccc(NC(=O)CS(=O)CC(=O)NCC2OCCc3ccccc32)cc1 (centres undefined)	54%
CN(C)Cc1ccccc1-c1cncnc1NCc1ccccc1	-4%
COCC(=O)Nc1nc2n(n1)C(c1ccccc1)CC(c1ccc(OC)cc1)N2 (centres undefined)	95%
C[C@H](CN(C)C)C(C#N)(c1ccccc1)c1ccccc1	15%[5.75 µM]
Cn1c(=O)c(=O)n(C)c2cc(S(=O)(=O)N3CCC(Cc4ccccc4)CC3)ccc21	0%
COc1ccc2nc3oc(C(=O)NCc4cccs4)cc3cc2c1	0%
COc1cccc(Nc2ncc3nc(-c4cccs4)c(=O)n(C[C@H]4CCCO4)c3n2)c1	-6%
CC12CC(c3ccccc3O1)C(C(=O)OCc1ccccc1)C(=O)N2 (centres undefined)	12%
COc1cc(OC)cc(-c2nnc(SCC(=O)N3c4ccccc4Sc4ccccc43)o2)c1	-8%
COc1ccc(-c2[nH]c(-c3cccc(OC)c3)nc2SCC(=O)NCc2ccco2)cc1	-9%
C[C@@H](C(=O)Nc1ccc2ccccc2c1)[C@H]1C[C@]1(C)[C@H](NS(=O)(=O)c1ccccc1)c1ccccc1	-18%
Cc1[nH]c(=O)[nH]c(=O)c1S(=O)(=O)N1CCCC(C(=O)NCCc2ccccc2)C1 (centres undefined)	-5%
C=CCn1c(C)cc(C(=O)CSc2nnc(-c3cccc(S(=O)(=O)N(CC)CC)c3)o2)c1C	22%
Cn1cc(-c2nc3cncnc3n(Cc3ccccc3Cl)c2=O)c2ccccc21	-4%
COc1ccc2cc(C(c3nnnn3C(C)(C)C)N3CCc4ccccc4C3)c(=O)[nH]c2c1 (centres undefined)	42%
CCOC(=O)Cc1csc(NC(=O)c2cnc3scc(C)n3c2=O)n1	15%
CSc1nc2c(c(=O)n1Cc1ccccc1)SC(C)C2 (centres undefined)	11%
Cc1ccc2c(c1)[C@H]1OCC[C@H]1[C@@H](c1ccncc1)N2	7%
O=c1cc(N2CCc3ccccc3C2)[nH]c(=O)n1Cc1ccc(F)cc1	u
CC(=O)c1ccc(OCCCC(=O)OCC(=O)N2CCN(c3ccccc3)CC2)cc1	68%
Cc1ccc(S(=O)(=O)N(C)Cc2nc(-c3ccccn3)no2)cc1	-19%
CC(=O)Oc1ccccc1C(=O)Oc1ccc(/C=N/n2cnnc2)cc1	37%
COc1cc(-c2nc3cnccc3n2C)cc(OC)c1OC	5%
Cc1occc1C(=O)Nc1cccnc1	0%

Going on with the list.
SMILES	AmpC inh no det
CCN1CCN(c2ncc(C(=O)Nc3cc(Cl)ccc3OC)c3ccccc23)CC1	126%
CC(C)=C(NC(=O)c1ccccc1)C(=O)NCCCC(=O)O	-2%
C=CCn1c(SCc2nc3ccccc3[nH]2)nnc1-c1ccncc1	-12%
CN1CCN(c2ncc3nc(-c4cc(F)cc(F)c4)c(=O)n(C4CC4)c3n2)CC1	64%
O=C(Nc1cccc(C(F)(F)F)c1)C1C2CC3OC(=O)C1C3C2 (centres undefined)	6%
Clc1ccc2c(c1)[C@H]1OCC[C@H]1[C@@H](c1ccco1)N2	5%
Cc1cc(NC(=O)C2CCCN(S(=O)(=O)c3c(C)noc3C)C2)n[nH]1 (centres undefined)	4µM*[single pt active]
Cc1ccc(Nc2nc(N)nc(CN3CCN(C)CC3)n2)cc1C	14%
CCOc1ccc(C(=O)NCc2ccco2)cc1	-6%
CCC=O	-3%
CCN1CCN(CC(=O)NC2CCCCC2)C(=O)C1=O	2%
COc1cccc(CN2CCN(C(=O)c3cccc4ccccc34)CC2)c1OC	110%
CN(C)c1ccc(NC(=O)CSCc2nc3c(nnn3Cc3ccc(F)cc3)c(=O)[nH]2)cc1	-7%
CCOC(=O)C1=C(N)n2c(s/c(=C\c3cccnc3)c2=O)=C(C#N)C1c1cccnc1 (centres undefined)	32%
Cc1cc(C)c(C(=O)OCCNC(=O)c2cccnc2)cc1C	47%
Oc1ccc2c(c1)oc1cc(O)ccc12	u
CCCCOC(=O)C1=C(C)Nc2ncnn2C1c1ccc(OC)c(OC)c1 (centres undefined)	63%
O=C(CSc1ncnc2nc[nH]c12)N1CCOCC1	2%
COc1ccccc1NC(=O)CSc1nnc(C)o1	-4%
CC(=O)N(Cc1cc2cc(C)c(C)cc2n2nnnc12)CC1COCCO1 (centres undefined)	19%
Clc1ccc(SCCCCn2cncn2)cc1	17%
COc1cccc(C2=NC(C)(C)NC(c3ccccc3O)C2)c1 (centres undefined)	18%
Cc1cc(=O)oc2cc(OCC(=O)N3c4ccccc4CC3C)ccc12 (centres undefined)	18%

Rewritten with each value named: entries from further up.
O=C(c1oc2ccccc2c1CSCc1ccccc1)N1CCN(c2ncccn2)CC1
  AmpC inh no det: 34%
O=c1cccc2n1CC1CC2CN(Cc2c(F)cccc2Cl)C1 (centres undefined)
  AmpC inh no det: 28%
Cc1ccc(-c2noc(CCC(=O)NCCCN3CCN(c4ccc(F)cc4)CC3)n2)cc1
  AmpC inh no det: 142%
COc1ccc(C(=O)N2CCC3(CCCN(c4ccc(-c5ccccc5)cc4)C3)CC2)cc1
  AmpC inh no det: 67%

Screens from PubChem BioAssay.
